Sa RN4220 lethal – kills Staphylococcus aureus RN4220. S. aureus RN4220 growth, OD600, 16 h. AID 1259311. 330,000 compounds, 0.33% hits. inhibition, % (concentration not given with the values);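 active = z-score of -3 or lower and OD600 up to 0.18 on both plates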;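 also: plate controls were untreated cells for no effect and reference antibiotic for full effect; stock transfer was 100 nL into about 80 µL; one replicate is shown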
Mtb hypoxia inh – Mtb hypoxia fluorescent reporter inhibition | M. tuberculosis hypoxia-regulated fluorescent reporter, fluorescence | AID 1159583 | fluorescence inhibition, % (no concentration beside the values) | 300,000 compounds, 0.1% hits;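 active = 35 to 45% if threefold the growth effect, above 45% if 1.5-fold the growth effect; inactive = the rest, general growth blockers included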;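 also: wells of about 50 µL received 100 nL stock; 0% = vehicle wells and 100% = reference inhibitor wells; whole bacteria with a GFP reporter of the hypoxia response; strong numbers were not always called active; many hits fall short of the cut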
Sa ugtP lethal – kills S. aureus RN4220 lacking UgtP; growth inhibition, % (no concentration beside the values); AID 1259309; S. aureus RN4220 ugtP deletion, OD600 growth, 16 h; some inactives read as strong as hits; 330,000 compounds, 0.54% hits;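 active = z-score under -3 and OD600 up to 0.15 on both plates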;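 also: plate controls were untreated wells for no effect and antibiotic for full effect; wells of about 80 µL received 100 nL stock; the first replicate is given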
PrP UTR inh – suppresses PrP 5' UTR mRNA reporter expression | cell-based PrP 5' UTR mRNA reporter, plate reader | inhibition, % (test concentration not listed) | 340,000 compounds, 0.35% hits | AID 488862;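 active = every replicate at 50% or more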;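 also: 0 = median of the neutral control wells; tested in H4 reporter cells; numbers are from one replicate; inactives centre near -14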
BJeLR viability – kills HRASV12-expressing BJeLR cells. BJeLR (HRASV12) viability, CellTiter-Glo ATP luminescence, 48 h; reference of the scale not given here. inhibition, % (concentration not given with the values). 300,000 compounds, 0.17% hits. AID 1554;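 active = replicate mean above 50%; inconclusive = above 50% but judged a plate artefact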;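 also: 50 nL library stock added to about 25 µL; numbers are from one replicate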
Autofluor counter – flagged as autofluorescent in microsphere protease counterscreen; compound autofluorescence counterscreen, microsphere flow cytometry; hits give high values; fluorescence intensity (test concentration not listed); 360,000 compounds, 3.1% hits; AID 624483;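 active = at least 3 SD above the mean of all compounds, about 16000 in these data; inconclusive = too few beads counted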;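 also: 100 nL of 1 mM stock went into each well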
Mtb hypoxia inh growth – also measured in Mtb hypoxia inh; calls as there; growth inhibition, %; measured here: M. tuberculosis growth (absorbance);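 0% = vehicle and 100% = reference antibiotic; read after six days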
* hit, by the source's call; ? = inconclusive; / = no result given; & = joins results of further samples. This is a random part of the collection (roughly 4% active in at least one column).

entry	canonical_smiles	Sa RN4220 lethal	Mtb hypoxia inh	Mtb hypoxia inh growth	Sa ugtP lethal
1	COc1ccc(C2CC(C)=NN2C=O)cc1OC (stereo not drawn)	-0.2	2	-1	-4
2	Cc1ccc(CNC(=O)C2CCCN2S(=O)(=O)c2ccc3c(c2)C(C)(C)C(=O)N3C)cc1 (stereo not drawn)	7.1	5	7	15
3	O=C(N/C(=C\c1ccc(Br)cc1)C(=O)N1CCOCC1)c1ccco1	1.2	5	0	7
4	COc1ccc(C(C)=NN2CCOCC2)c(O)c1	3.5	10	-6	-1
5	CCn1c(SCC(=O)Nc2ccc(Cl)cc2)nc2nc3c(cc2c1=O)CCCC3	51	4	2	18
6	Cc1onc(-c2ccccc2)c1-c1n[nH]c(=S)n1-c1ccccc1Cl	12	2	11	-4
7	O=C(c1ccc(OC2CCN(C/C=C/c3ccc(F)cc3)CC2)cc1)N1CCCCC1	1.6	7	4	9
8	CN(C(=O)c1ccc(-c2nn(C)c(=O)c3ccccc23)cc1)C1CCCCC1	5.1	-2	3	5
9	CCCCOc1ccc(C2OC34CCCCC3C(C#N)(C#N)C2(C#N)C(=N)O4)cc1 (stereo not drawn)	/	/	/	/
10	CCOC(=O)c1c(C)[nH]c(O)c1C=Nc1ccc(C(F)(F)F)cc1	-9.3	-10	0	-22
11	CCOC(=O)C1CCCN(C(=O)C2CCN(S(=O)(=O)c3c(C)noc3/C=C/c3ccccc3F)CC2)C1 (stereo not drawn)	-0.9	-8	2	-3
12	O=C(NCC(=O)N1CCN(S(=O)(=O)c2ccccc2F)CC1)c1ccc2c(c1)OCO2	2.6	-10	5	-1
13	NC(=O)c1ccsc1NC(=O)CCS(=O)(=O)c1ccccc1	1.2	14	-4	1
14	Nc1cc(S(=O)(=O)N2CCCCC2)ccc1N1CCCCC1	2.5	5	-3	10
15	Cc1ccc(-c2nc(CN(C)C)cc(CN(C)C)c2O)cc1	8.8	/	/	2

entry	PrP UTR inh	BJeLR viability	Autofluor counter
1	-3	-1	8769
2	-3	-3	5894
3	-26	4	3843
4	/	/	/
5	-10	-4	7489
6	-1	14	22416*
7	-8	-1	4272
8	2	-3	5109
9	-31	-11	3643
10	-3	-8	4196
11	9	-8	5560
12	-6	9	?
13	-4	-13	4326
14	-21	/	?
15	-2	/	4329

Next part
entry	canonical_smiles	Sa RN4220 lethal	Mtb hypoxia inh	Mtb hypoxia inh growth	Sa ugtP lethal
16	Cc1ccc(N(CCC#N)C(=O)COC(=O)c2cc(C)oc2C)cc1	8.2	6	-2	2
17	CC(=O)c1ccccc1C(=O)N(C)C1CCCN(Cc2ccccc2F)C1 (stereo not drawn)	5.9	8	2	12
18	COc1ccc(OC)c(NC(=O)NNC(=O)c2cc3occc3[nH]2)c1	-2.4	-12	3	-8
19	CCOC(=O)C1=C(C)NC(=O)NC1c1cc2c(cc1Br)OCO2 (stereo not drawn)	11	18	8	-4
20	Cn1c(=O)cc(OCC(=O)N2CCC(N3CCCCC3)CC2)c2ccccc21	4.9	1	-1	6
21	FC(F)(F)c1cccc(OCCOCCn2cncn2)c1	3.8	/	/	-4
22	CC(=O)c1cnc2c(-c3ccc(Cl)cc3)cnn2c1C	8.6	-1	2	-3
23	O=C(CSc1ccc(Cl)cc1Cl)N1CCC(c2nc3ccccc3s2)CC1	-4.7	/	/	-16
24	O=S1(=O)N=C(N2CCN(Cc3ccc4c(c3)OCO4)CC2)c2ccccc21	3.9	2	0	17
25	O=c1cc(-c2ccccc2)c2cc(Cl)c(O)c(CN3CCOCC3)c2o1	4.7	-1	-2	-2
26	CCN(Cc1ccccc1)C(=O)CSc1n[nH]c(N)n1	1.6	6	6	14
27	O=C(CSc1nnnn1CCCO)Nc1ccc2c(c1)OCO2	2.5	11	14	2
28	CCn1c2ccccc2c2cc(C=Nn3cnnc3)ccc21	5.8	9	-4	-15
29	COc1ccccc1-c1cc2nc(C)c(CCC(=O)NCc3ccco3)c(C)n2n1	1.3	-3	5	10
30	O=C(c1ccc(=O)[nH]n1)N1CCN(S(=O)(=O)c2ccc(C(F)(F)F)cc2)CC1	0.6	-1	4	1

entry	PrP UTR inh	BJeLR viability	Autofluor counter
16	-5	/	3548
17	-5	-4	3353
18	-12	-9	/
19	-23	4	3265
20	-12	4	6142
21	-10	-18	3261
22	-76	/	3266
23	-18	-6	4346
24	-21	11	11274
25	-11	8	3541
26	-20	-2	6643
27	-4	-1	4206
28	/	/	/
29	-1	-1	5946
30	-4	/	6246

Remaining list, next part.
entry	canonical_smiles	Sa RN4220 lethal	Mtb hypoxia inh	Mtb hypoxia inh growth	Sa ugtP lethal
31	CCN(CC)S(=O)(=O)c1ccc(N2CC(C(=O)NCc3cccnc3)CC2=O)cc1 (stereo not drawn)	2.0	-8	-5	1
32	Cc1ccc(S(=O)(=O)Nc2ccc(F)cc2)cc1C(=O)N1CCOCC1	1.9	1	1	4
33	CC(C)(C)NC(=S)NC(=O)C12CCC3CC(CC(C3)C1)C2	-3.9	3	1	30
34	CCN(CC)c1ccc(C=c2sc3nc4ccccc4n3c2=O)c(O)c1	-7.5	5	4	7
35	COC(=O)C1=C(C)C(c2ccc(OC)cc2)NC(=S)N1 (stereo not drawn)	2.9	1	-7	1
36	Cc1n[nH]c(=S)n(N=Cc2cccs2)c1=O	-1.9	-4	2	-6
37	CSc1ccc(C2=CC(=O)C[C@H](c3ccc4c(c3)OCO4)C2)cc1	9.8	-9	2	4
38	Cc1ccnc(NS(=O)(=O)c2ccc(NC(=O)C3CCCCC3C(=O)O)cc2)n1 (stereo not drawn)	7.8	14	12	4
39	Cc1cc(F)cc(C)c1Cn1cnc2c(cnn2C(C)(C)C)c1=O	2.1	6	9	2
40	CCN1C(=O)C2C(c3ccc(Cl)cc3)N3C(=O)CN(Cc4ccccc4)C(=O)[C@@]3(C)C2C1=O (stereo partly drawn)	0.4	-1	0	-14
41	CCOc1ccccc1C1CC(c2ccc(Cl)cc2)Nc2nc(N)nn21 (stereo not drawn)	-2.1	/	/	6
42	Cc1cc(C)cc(NC(=O)c2ccc(NC(=O)C3C4CC5OC(=O)C3C5C4)cc2)c1 (stereo not drawn)	0.5	17	9	2
43	O=C(O)c1cccc(Nc2c3ccccc3nc3ccccc23)c1	1.1	13	7	5
44	CN(CC(=O)Nc1c(Cl)cccc1Cl)C(=O)c1ccc2ccccc2n1	1.4	4	1	6
45	Cc1ccc(CN2C(=O)C(C)Nc3ncnc(N4CCOCC4)c32)cc1 (stereo not drawn)	7.5	8	7	-2

entry	PrP UTR inh	BJeLR viability	Autofluor counter
31	-10	-17	3767
32	-21	/	3555
33	-18	-8	2233
34	/	/	/
35	-5	-5	9667
36	/	/	/
37	-16	/	3486
38	-7	8	2590
39	-26	/	3988
40	/	/	/
41	-12	-13	6075
42	4	-4	4053
43	-28	-11	4295
44	-14	/	/
45	-23	4	3074

(next part)
entry	canonical_smiles	Sa RN4220 lethal	Mtb hypoxia inh	Mtb hypoxia inh growth	Sa ugtP lethal
46	Cc1cccc(C)c1NC(=O)C(=O)NCCc1c[nH]c2ccccc12	2.2	-1	-2	15
47	Cc1ccc2nc(SCCC(=O)O)cc(C)c2c1	11	8	9	5
48	CC1CC(C)CN(S(=O)(=O)c2ccc(C(=O)OCC(=O)NCCN3C(=O)CSC3=O)cc2)C1 (stereo not drawn)	1.1	12	4	1
49	OC(c1ccccc1)C(CN1CCOCC1)c1ccccc1 (stereo not drawn)	2.7	7	7	3
50	CC(=O)NC1=NN(C(C)=O)C(c2ccc(C)cc2)S1 (stereo not drawn)	2.4	-2	2	5
51	CN(C(=O)c1ccccc1C(=O)OCC(=O)Nc1cccc(Br)c1)c1ccccc1	8.9	2	-1	1
52	COc1cccc(C2=NOC(C(=O)Nc3ccc4c(c3)OCO4)C2)c1 (stereo not drawn)	5.0	-1	1	0
53	O=C1c2cccc3cc([N+](=O)[O-])cc(c23)C(=O)N1c1nncs1	3.4	7	8	7
54	Fc1ccc(NC(=S)Nc2ccccc2Cl)cc1	3.6	14	5	11
55	N#CCC(=O)NN=Cc1ccc(Cl)cc1	-3.3	-6	4	-5
56	O=C1C2C(c3ccccc3)C=CC(c3ccccc3)C2C(=O)N1CCO (stereo not drawn)	0.0	0	-11	4
57	COc1ccc(CCNS(=O)(=O)c2c(C)[nH]c(C)c2C(=O)N2CCCCC2)cc1OC	-4.3	-8	2	-9
58	O=C1OCCC1Sc1nnnn1-c1ccccc1 (stereo not drawn)	0.4	/	/	6
59	Cc1ccc(NC(=O)c2ccc(COc3ccc4c(c3)CCC4)cc2)c(C)c1	1.2	-1	8	-3
60	Cc1ccc(C(=O)N/N=C/c2nc3ccccc3n2C)cc1	/	/	/	/

entry	PrP UTR inh	BJeLR viability	Autofluor counter
46	-19	6	3817
47	-10	-4	2550
48	-7	-5	4051
49	-19	10	4584
50	-28	-16	3212
51	-14	/	/
52	-20	-1	2349
53	-40	9	6218
54	-25	2	2606
55	/	/	/
56	-6	3	9194
57	2	11	6221
58	-13	6	2677
59	-11	5	2158
60	-33	7	5634

Reformatted field by field: 4 of the compounds above.
50: CC(=O)NC1=NN(C(C)=O)C(c2ccc(C)cc2)S1 (stereo not drawn)
  Sa RN4220 lethal: 2.4
  Mtb hypoxia inh: -2
  Mtb hypoxia inh growth: 2
  Sa ugtP lethal: 5
  PrP UTR inh: -28
  BJeLR viability: -16
  Autofluor counter: 3212
51: CN(C(=O)c1ccccc1C(=O)OCC(=O)Nc1cccc(Br)c1)c1ccccc1
  Sa RN4220 lethal: 8.9
  Mtb hypoxia inh: 2
  Mtb hypoxia inh growth: -1
  Sa ugtP lethal: 1
  PrP UTR inh: -14
  BJeLR viability: /
  Autofluor counter: /
52: COc1cccc(C2=NOC(C(=O)Nc3ccc4c(c3)OCO4)C2)c1 (stereo not drawn)
  Sa RN4220 lethal: 5.0
  Mtb hypoxia inh: -1
  Mtb hypoxia inh growth: 1
  Sa ugtP lethal: 0
  PrP UTR inh: -20
  BJeLR viability: -1
  Autofluor counter: 2349
53: O=C1c2cccc3cc([N+](=O)[O-])cc(c23)C(=O)N1c1nncs1
  Sa RN4220 lethal: 3.4
  Mtb hypoxia inh: 7
  Mtb hypoxia inh growth: 8
  Sa ugtP lethal: 7
  PrP UTR inh: -40
  BJeLR viability: 9
  Autofluor counter: 6218

(listing goes on)
entry	canonical_smiles	Sa RN4220 lethal	Mtb hypoxia inh	Mtb hypoxia inh growth	Sa ugtP lethal
61	CN(C)S(=O)(=O)c1ccc(C(=O)OCc2ccc([N+](=O)[O-])cc2)cc1	4.8	19	1	2
62	CCc1nn(CC(=O)NCCCN2CCN(C)CC2)c(=O)c2cc3sccc3n12	-1.4	15	5	4
63	Cc1ccc(C(=O)CN2C(=O)NC3(CCCCCC3)C2=O)c(C)c1	5.7	3	9	2
64	C(=N\c1nc2ccccc2n1Cc1ccccc1)/c1cccs1	/	/	/	/
65	O=C(c1ccc(CS(=O)(=O)c2c(Cl)cccc2Cl)o1)N1CCCC1	-0.2	/	/	9
66	CCN1CCN(Cc2ccc(NC(=O)c3ccc(C)c(NC(=O)N4CCNC4=O)c3)cc2C(F)(F)F)CC1	-1.5&0.0	3&-2	7&0	-2&2
67	CC(=NNC(=O)C1CCCN(S(=O)(=O)c2ccccc2)C1)c1ccncc1 (stereo not drawn)	0.5	6	3	1

entry	PrP UTR inh	BJeLR viability	Autofluor counter
61	-14	0	4608
62	-2	17	4245
63	-30	-9	?
64	-39	-8	7853
65	-31	-2	5010
66	16&36	9&-9	3693&3905&4204
67	/	/	/

Source: PubChem (several laboratories)
